LASV entry inh = qHTS for Inhibitors of binding or entry into cells for Lassa Virus. Potency, µM (doses to about 49.2 µM), without a hit: at the top dose activity change, negative = inhibition, hits mostly inhibitors. AID 720533, 2013. 18,000 tested, 4.1% active. Lassa virus pseudotyped entry inhibition, cell-based qHTS; control for the full effect not named in the record; many of its hits are not listed in these tables; active = well fitted inhibition curve with a large enough effect; inconclusive = small, poorly fitted or top-dose-only effect; inactive = no such curve, though single readings can be large or run the other way; tested in HEK293 cells; also: luciferase read-out
Marburg entry = qHTS for Inhibitors of binding or entry into cells for Marburg Virus | 18,000 tested, 6.5% active | Potency, µM (highest dose often 49.2 µM), without a hit: at the top dose activity change, negative = inhibition, hits mostly inhibitors | Marburg virus pseudotype entry/binding inhibition, cell-based; control for the full effect not named in the record; many of its hits are not listed in these tables | AID 720532, 2013; active means well fitted inhibition curve with a large enough effect; inconclusive means small, poorly fitted or top-dose-only effect; inactive means no such curve, though single readings can be large or run the other way; tested in HEK293 cells; also: luciferase read-out
* marks the source's active call; other numbers are inactive results; u = inconclusive; x = not tested or not shown; & = joins results of further samples; [ ] = dose if it differs, or a comment. % is scaled to controls: 0 for no effect and ±100 for the full control effect; potency is read from the fitted curve at half-maximal effect.

nr | molecule | LASV entry inh | Marburg entry
1 | CCOP(=S)(OCC)O/N=C(\C#N)c1ccccc1 | -2% | 9%
2 | CN1CCN(c2nc(-c3cccc(C#N)c3)nc3ccccc23)CC1 | -13% | -24%
3 | COc1ccc(CN2CCC(n3cc(C(=O)N4CCCCC4)nn3)CC2)c(OC)c1 | 5% | -11%
4 | COC(=O)[C@H]1[C@H](C)[C@@]2(O)c3ccccc3N(C)[C@@]1(C)[C@H]2O | -14%[8.59 µM] | -25%[8.59 µM]
5 | CCCCCC(=O)Cc1cc(O)cc(O)c1C(=O)Oc1cc(CC(=O)CCCCC)c(C(=O)O)c(OC)c1 | 22% | 6%
6 | COc1ccc(COC(=O)NN=C2C[C@@H](O)[C@@H](O)[C@@H]3[C@H]4C(=O)N(c5ccc(F)cc5F)C(=O)[C@@H]4CC[C@H]23)cc1 | 1.3µM* | 30%[activator][8.59 µM]
7 | CCN1C(=S)NC(c2ccccc2)C(C(=O)OC)=C1C (stereo unspecified) | 6%[8.59 µM] | -2%[8.59 µM]
8 | CSc1nnc(CNC(=O)c2c(-c3ccccc3)noc2C)n1-c1ccc(F)cc1 | -15% | 8%
9 | O=S(O)CNc1ccc(S(=O)(=O)c2ccc(NCS(=O)O)cc2)cc1 | 1% | 5%
10 | C=CCN1c2ccccc2[C@]23CCC(=O)N(CCOC)C2=NC(C(=O)OC)=C(C(=O)OC)[C@H]13 | 50%[activator][8.59 µM] | 13%&1%[8.59 µM]
11 | Cn1ccc2c(-c3cccnc3)cc3c(c21)C1CCC3C1 (stereo unspecified) | 4% | 22%
12 | CC(C)OC(=O)[C@H](C)NC(=O)N1CCc2nc(COc3ccccc3)c3c(c2C1)CO[C@@H](C)C3 | -31%[8.59 µM] | -36%[8.59 µM]
13 | COc1ccc(NC(=O)c2ccc(-c3ccc(C)c4ccccc34)o2)cc1 | 26% | 14%
14 | Cc1ccc(CN2CC(N3CCN(Cc4cccc(C)c4)CC3)CS2(=O)=O)cc1 (stereo unspecified) | 10% | 20%
15 | O=C(/C=C/c1ccc(I)cc1)c1ccc(B(O)O)cc1 | -2% | -29%
16 | COC(=O)CC=C[C@@H](C)[C@H](NC(=O)OCC(Cl)(Cl)Cl)c1cccc(OC)c1 | -23%[8.59 µM] | -8%[8.59 µM]
17 | O=C(N[C@@H]1c2ccccc2C2(CCN(C(=O)c3ccc4c(c3)OCCO4)CC2)[C@H]1O)c1cccnc1 | 1% | -3%
18 | CCN1C(=NCc2ccc3c(c2)OCO3)NC(CCc2ccccc2)C(C(=O)OC)=C1C (stereo unspecified) | 49%[activator][8.59 µM] | -30%[8.59 µM]
19 | Fc1cccc(/C=N\N=C/c2cccc(F)c2)c1 | 3% | 30%[activator]
20 | N#C/C(=C\c1ccc(O)c(O)c1)C(=O)NCCCc1ccccc1 | u | -14%
21 | COc1cccc(CS(=O)(=O)c2nnnn2C2CCCCC2)c1 | 6% | -3%
22 | O[C@@H]1CCCC[C@@H]1N1CCC(c2ccccc2)CC1 | 10% | -5%
23 | C=CC[C@@](C(C)=O)(C(=O)OC)[C@@H](NC(=O)OC(C)(C)C)c1ccccc1 | 12%[8.59 µM] | 30%[activator][8.59 µM]
24 | Nc1nc2c(c(=O)[nH]1)N=C(CNc1ccc(C(=O)NC(CCC(=O)O)C(=O)O)cc1)CN2 (stereo unspecified) | -4% | 17%
25 | C[C@H]1Cc2c(COc3ccccc3)nc3c(c2CO1)CN(S(=O)(=O)c1ccc2c(c1)OCCN2C)CC3 | -10%[8.59 µM] | u
26 | COC(=O)C1=C(C(=O)OC)[C@@H]2N(C)c3ccccc3[C@@]23CCC(=O)N(CCCOC(C)C)C3=N1 | -20%[8.59 µM] | -10%[8.59 µM]
27 | Cc1nc2ccccc2oc1=O | 2% | 14%
28 | Cc1cc(OC(=O)c2c(C)cc(O)cc2O)cc(O)c1C(=O)O | -2%&7% | -2%&15%
29 | COc1ccc([C@@H]2CC(=O)c3c(O)cc(O[C@@H]4O[C@H](CO[C@@H]5O[C@@H](C)[C@H](O)[C@@H](O)[C@H]5O)[C@@H](O)[C@H](O)[C@H]4O)cc3O2)cc1 | -1% | 5%
30 | CCOC(=O)NN=C1C[C@@H](O)[C@@H](O)[C@@H]2[C@H]3C(=O)N(C[C@@H]4CCCO4)C(=O)[C@@H]3CC[C@H]12 | 10%[8.59 µM] | 6%[8.59 µM]
31 | COc1cc(/C=C/C(=O)c2c(O)cc(C)oc2=O)cc(OC)c1O | -15% | -23%
32 | C=CCCC1CN(Cc2ccc(OC)cc2)S(=O)(=O)c2c(Oc3ccc(C)cc3)cccc2O1 (stereo unspecified) | x | u
33 | N#Cc1c(Cl)c(Cl)c(Cl)c(C#N)c1Cl | 2.2µM* | 1.1µM*
34 | Cc1c(C(=O)N2CCCCC2)sc2ncnc(NCCc3ccccn3)c12 | -26% | 18%
35 | CNC1C2CN3CCC(O2)C13 (stereo unspecified) | 8% | -8%
36 | COc1ccc([C@H]2C[C@H](O)[C@@H](n3cc(-c4ccc(F)cc4)nn3)CN2C(=O)C2CCCCC2)cc1 | -42% | u
37 | NC[C@@H]1O[C@H](O[C@H]2[C@@H](O)[C@H](O[C@@H]3[C@@H](O)[C@H](N)C[C@H](N)[C@H]3O[C@H]3O[C@H](CN)[C@@H](O)[C@H](O)[C@H]3N)O[C@@H]2CO)[C@H](N)[C@@H](O)[C@@H]1O | -5% | 8%
38 | CN[C@@H](Cc1c[nH]c2ccccc12)C(=O)O | -1% | 7%
39 | Cc1nn(-c2ccccc2)c(C)c1CC(=O)NCC1Cc2cc(F)cc(-c3cccnc3)c2O1 (stereo unspecified) | -13% | -11%
40 | COc1cc(C)c(/C=C/C(C)=C/C=C/C(C)=C/C(=O)O)c(C)c1C | -1%&-22% | 17%&-9%
41 | COc1cccc([C@@H]2Oc3ccc(Br)cc3C[C@H]2OC(=O)N[C@H](C)C2CCCCC2)c1 | 5% | -8%
42 | CCCCCC(O)/C=C/C=C\CCCCCCCC(=O)O (stereo unspecified) | -4% | -1%
43 | COc1cc(=O)n2c(c1C(=O)NC(C)c1ccco1)CCN(Cc1cc3ccccc3o1)CC2 (stereo unspecified) | -9% | -14%
44 | S=C(SSC(=S)N1CCCCC1)N1CCCCC1 | 10% | 9%
45 | CC(C)(C)NCC(O)CSc1nc(-c2ccc(C(N)=O)s2)cs1 (stereo unspecified) | -8% | -24%
46 | CC1=C2CCC3C4CCC(=O)[C@@]4(C)CCC3[C@]2(C)CCC1=O (stereo partly specified) | 1% | u
47 | COc1ccc2c(c1)[C@@]1(OCCC=C[C@@H]1C)C(=O)N2Cc1ccccc1C(F)(F)F | 16%[8.59 µM] | -15%[8.59 µM]
48 | O=C1OC(OC(=O)c2cccnc2Nc2cccc(C(F)(F)F)c2)c2ccccc21 (stereo unspecified) | -15% | 11%
49 | c1cc(Cc2cnc[nH]2)ccn1 | 1% | -1%
50 | Cc1ccccc1-c1nc(-n2ccnc2)c2ccccc2n1 | u | u
51 | CC1(C)CC[C@]2(C(=O)O)CC[C@@]3(C)C(=CCC4[C@@]5(C)CCC(O)[C@@](C)(CO)C5CC[C@@]43C)C2C1 (stereo partly specified) | -19% | -20%
52 | C/C=C(\C=C\[C@@H](C)C/C=C/CC/C=C/C=C\C[C@@H](OC)/C(C)=C\C=C(C)C)CC(=O)O | -13% | 3%
53 | Cc1nc(NCc2c(C)nn(C)c2Cl)sc1-c1ccn(CC2COc3ccccc3O2)n1 (stereo unspecified) | -24% | 12%
54 | Cc1cn(C2OC[C@@H](O)[C@@H]2CO)c(=O)[nH]c1=O (stereo partly specified) | -6% | -5%
55 | C[C@@H]1CC[C@H]2C(=O)N(Cc3ccc(Cl)cc3)C[C@H](O)CN2[C@@H]1c1ccc(Br)cc1 | -8%[8.59 µM] | 29%[8.59 µM]
56 | COc1ccc([C@H]2C[C@H](O)[C@@H](n3cc(-c4ccc(F)cc4)nn3)CN2Cc2cccs2)cc1 | x | u
57 | Cc1oc(-c2cccc(NC(=O)c3ccccn3)c2)nc1CNC(=O)c1ccc(C(F)(F)F)cc1 | -9% | 16%
58 | CCCCN1CCC[C@H]1CNC(=O)c1cc(C#N)c2ccccc2c1OC | u | 10µM*

A draw from above in order of molar mass, falling.
nr | molecule | LASV entry inh | Marburg entry
57 | Cc1oc(-c2cccc(NC(=O)c3ccccn3)c2)nc1CNC(=O)c1ccc(C(F)(F)F)cc1 | -9% | 16%
53 | Cc1nc(NCc2c(C)nn(C)c2Cl)sc1-c1ccn(CC2COc3ccccc3O2)n1 (stereo unspecified) | -24% | 12%
12 | CC(C)OC(=O)[C@H](C)NC(=O)N1CCc2nc(COc3ccccc3)c3c(c2C1)CO[C@@H](C)C3 | -31%[8.59 µM] | -36%[8.59 µM]
56 | COc1ccc([C@H]2C[C@H](O)[C@@H](n3cc(-c4ccc(F)cc4)nn3)CN2Cc2cccs2)cc1 | x | u
24 | Nc1nc2c(c(=O)[nH]1)N=C(CNc1ccc(C(=O)NC(CCC(=O)O)C(=O)O)cc1)CN2 (stereo unspecified) | -4% | 17%
16 | COC(=O)CC=C[C@@H](C)[C@H](NC(=O)OCC(Cl)(Cl)Cl)c1cccc(OC)c1 | -23%[8.59 µM] | -8%[8.59 µM]
9 | O=S(O)CNc1ccc(S(=O)(=O)c2ccc(NCS(=O)O)cc2)cc1 | 1% | 5%
31 | COc1cc(/C=C/C(=O)c2c(O)cc(C)oc2=O)cc(OC)c1O | -15% | -23%
2 | CN1CCN(c2nc(-c3cccc(C#N)c3)nc3ccccc23)CC1 | -13% | -24%
28 | Cc1cc(OC(=O)c2c(C)cc(O)cc2O)cc(O)c1C(=O)O | -2%&7% | -2%&15%
1 | CCOP(=S)(OCC)O/N=C(\C#N)c1ccccc1 | -2% | 9%
4 | COC(=O)[C@H]1[C@H](C)[C@@]2(O)c3ccccc3N(C)[C@@]1(C)[C@H]2O | -14%[8.59 µM] | -25%[8.59 µM]
11 | Cn1ccc2c(-c3cccnc3)cc3c(c21)C1CCC3C1 (stereo unspecified) | 4% | 22%
33 | N#Cc1c(Cl)c(Cl)c(Cl)c(C#N)c1Cl | 2.2µM* | 1.1µM*
54 | Cc1cn(C2OC[C@@H](O)[C@@H]2CO)c(=O)[nH]c1=O (stereo partly specified) | -6% | -5%
49 | c1cc(Cc2cnc[nH]2)ccn1 | 1% | -1%

From PubChem

This is a subset; the hit share may differ from the screen's.
